Ecoli growth: inhibitors of Escherichia coli growth | OD600, 23 h; stronger effect = lower value | OD600 absorbance (no concentration beside the values) | 330,000 tested, 0.21% active | AID 1053175;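 active = OD600 absorbance below the run mean of sample wells minus 3.6 SD, in any replicate, cut at about 0.56 in these data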;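 also: stock transfer was 300 nL into about 60 µL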
FGF22 binding: shifts melting point of recombinant human FGF22. AID 651658. Q9HCT0. 340,000 tested, 1.5% active. recombinant FGF22 thermal shift, SYPRO orange fluorescence; percent of sucrose octasulfate shift, DMSO zero. calls only at 9.99 µM;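 active = melting point raised past a set limit in the mean and every replicate; three in four hits are not shown here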
UCH37 DUB inh: blocks the human deubiquitinase UCH37; Q9Y5K5; purified proteasome/UCH37, Ub-AMC cleavage fluorescence; inhibition, % (no concentration beside the values); 330,000 tested, 0.33% active;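 active = mean of two replicates above 20%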;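 also: 0% = compound-free wells with enzyme and 100% = wells lacking proteasome; stock transfer was 100 nL into about 20 µL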
Target sequence (Q9Y5K5 whole entry, looked up): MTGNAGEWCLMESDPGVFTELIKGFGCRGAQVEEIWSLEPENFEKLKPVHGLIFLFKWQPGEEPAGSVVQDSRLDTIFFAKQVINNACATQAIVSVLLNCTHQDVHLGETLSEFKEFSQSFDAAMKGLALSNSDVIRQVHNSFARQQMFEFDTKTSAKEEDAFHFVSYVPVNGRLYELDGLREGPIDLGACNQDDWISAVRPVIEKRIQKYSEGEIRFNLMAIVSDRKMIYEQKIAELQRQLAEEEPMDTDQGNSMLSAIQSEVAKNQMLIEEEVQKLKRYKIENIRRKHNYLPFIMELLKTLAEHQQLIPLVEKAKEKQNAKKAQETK
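Signal – fluorescence, ex 355 nm, em 460 nm · System – Proteasome-bound UCH37 · Input – 0.15 nM proteasome as dispensed · Timing – 30 min preincubation with enzyme, 25 min cleavage at room temperature · Read-out basis – percent inhibition of cleavage signal versus uninhibited and no-proteasome wells · Medium – Tris-HCl pH 7.4 with ATP-MgCl2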
rRNA inh HTS: inhibitors of bacterial rRNA selective over humanized ribosomes. E. coli WT GFP vs humanized-ribosome RFP mutants, fluorescence, 24 h; stronger effect = lower value; DMSO median 0, no signal -100. GFP signal change (wild-type ribosome), % (concentration not given with the values). 350,000 tested, 1.6% active. AID 720706;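 active = significant combined selectivity score with lowered wild-type GFP, culture density cut under 30%, mutant RFP and density less affected; inactive = any of these conditions unmet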; also: one replicate is shown; some compounds called inactive have numbers as strong as hits
Beta2AR agonist: activates human beta-2 adrenergic receptor causing internalization; 340,000 tested, 0.43% active; response, % (no concentration beside the values); Am2.2-beta2AR cells, FAP receptor internalization, flow cytometry; reference of the scale not given here; AID 504454;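 active = response above a set limit, near 3 SD of response in nonfluorescent compounds, cut at about 42% in these data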;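 also: stock transfer was 100 nL into about 11 µL; a reference agonist was the positive control; negative values mostly stem from fluorescent compounds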
Target sequence (P07550 whole entry, looked up): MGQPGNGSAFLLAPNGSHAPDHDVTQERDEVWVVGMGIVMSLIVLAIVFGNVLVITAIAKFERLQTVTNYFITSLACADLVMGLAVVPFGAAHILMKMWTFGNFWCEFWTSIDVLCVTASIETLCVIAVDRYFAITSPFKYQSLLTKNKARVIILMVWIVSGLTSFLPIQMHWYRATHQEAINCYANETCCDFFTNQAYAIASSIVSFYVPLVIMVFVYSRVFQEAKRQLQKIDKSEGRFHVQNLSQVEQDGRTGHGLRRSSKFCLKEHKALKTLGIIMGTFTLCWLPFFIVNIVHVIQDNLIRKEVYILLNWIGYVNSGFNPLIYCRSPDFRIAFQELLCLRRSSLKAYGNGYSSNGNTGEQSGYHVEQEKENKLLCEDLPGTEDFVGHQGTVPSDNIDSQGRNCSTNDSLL
HNF4A DNA FP: change in binding of human HNF4 alpha to DNA | HNF4a-FITC DNA binding, fluorescence polarization, 1 h | activity change, % at 10 µM | AID 1224865 | 360,000 tested, 0.3% active; in the data active = activity change above about 30%, passing the limit was not always enough;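 also: controls were the assay level and a saturating level of protein; the project sought stronger binding though the title names inhibitors; some compounds called inactive have numbers as strong as hits; positive values seem to mean higher polarization but the record does not say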
ALR H2O2 inh: inhibitors of human sulfhydryl oxidase ALR. P55789. purified ALR, DTT oxidation, H2O2 HRP-luminol luminescence. inhibition, % (test concentration not listed). 290,000 tested, 3.8% active. AID 485317;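 active = mean and each replicate at 75% or more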;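 also: stock transfer was 7.5 nL into about 7.5 µL; 0% = neutral wells and 100% = wells with inactivated enzyme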
Target sequence (P55789 whole entry, looked up): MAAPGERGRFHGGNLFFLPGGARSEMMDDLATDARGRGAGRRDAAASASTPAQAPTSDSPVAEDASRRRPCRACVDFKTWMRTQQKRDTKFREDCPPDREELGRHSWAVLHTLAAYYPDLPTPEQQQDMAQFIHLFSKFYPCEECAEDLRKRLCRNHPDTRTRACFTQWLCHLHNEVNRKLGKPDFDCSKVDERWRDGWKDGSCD
rRNA inh HTS OD600: also measured in rRNA inh HTS; calls as there; OD600 change, %; measured here: OD600 growth;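 optical density of the mix in the first replicate; 0 = DMSO median and -100 = no signal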
rRNA inh HTS RFP: also measured in rRNA inh HTS; calls as there; RFP signal change, %; measured here: RFP humanized mutant strains;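 first replicate; 0 = DMSO median and -100 = no signal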
* hit, by the source's call; i = inactive; . = no result given.

The opening two compounds (preview)
SMILES	Ecoli growth	FGF22 binding	UCH37 DUB inh	rRNA inh HTS	rRNA inh HTS OD600	rRNA inh HTS RFP	Beta2AR agonist	HNF4A DNA FP	ALR H2O2 inh
CC(=O)NS(=O)(=O)c1ccc(NC(=O)c2ccc3c(c2)C(=O)N(CCC(C)C)C3=O)cc1	0.707	.	3.1	.	.	.	-10.3	-0.1	91.7*
CN1C(=O)N(CC(=O)N2CCN(S(=O)(=O)c3ccc4c(c3)CCC4)CC2)C(=O)C12CCCCC2	0.695	i	1.8	-0.9	-3.9	-1.5	-4.9	-0.5	.

This part in full, from the first entry:
SMILES	Ecoli growth	FGF22 binding	UCH37 DUB inh	rRNA inh HTS	rRNA inh HTS OD600	rRNA inh HTS RFP	Beta2AR agonist	HNF4A DNA FP	ALR H2O2 inh
CC(=O)NS(=O)(=O)c1ccc(NC(=O)c2ccc3c(c2)C(=O)N(CCC(C)C)C3=O)cc1	0.707	.	3.1	.	.	.	-10.3	-0.1	91.7*
CN1C(=O)N(CC(=O)N2CCN(S(=O)(=O)c3ccc4c(c3)CCC4)CC2)C(=O)C12CCCCC2	0.695	i	1.8	-0.9	-3.9	-1.5	-4.9	-0.5	.
COC(=O)[C@H]1C[C@H](OC(=O)NCc2ccc(OC)c(OC)c2)[C@@]2(O)CN(S(=O)(=O)c3ccc(C)cc3)CC2[C@H]1C(=O)OC (stereo partly drawn)	.	i	.	7.5	6.4	3.5	.	-1.0	.
CC1Cc2ccccc2N1C(=O)CSc1nnnn1C(C)C (stereo not drawn)	0.717	.	2.0	.	.	.	1.8	2.5	-18.3
O=C(NC1CCCCC1)C(c1cccnc1)N(C(=O)c1csnn1)c1ccccc1 (stereo not drawn)	0.675	i	0.4	6.0	13.9	-0.6	-1.4	-3.0	-6.9
CCOC(=O)CSc1nnc(CNc2ccc(Cl)cc2)n1-c1ccccc1	0.693	i	2.5	-11.6	-0.8	4.2	107.9*	-0.5	51.6
CCCC(C)Sc1nc2c([nH]1)c(=S)n(C)c(=O)n2C (stereo not drawn)	.	i	.	-54.9	-78.2	-17.9	3.7	2.6	.
COc1ccc(OCCOc2ccc(S(=O)(=O)N3CCCC3)cc2C(N)=O)cc1	0.669	i	0.2	11.6	14.2	3.0	10.9	-0.6	-1.8
CCN(CC)CCCC(C)n1c2nc(=O)[nH]c(=O)c-2nc2cc(Cl)ccc21 (stereo not drawn)	0.656	i	76.0*	97.0	-2.2	4.8	-229.7	-105.1	.
COc1ccc(OC)c(NC(=S)N2c3ccccc3CC2C)c1 (stereo not drawn)	0.643	i	1.5	-0.9	0.0	-1.8	6.0	1.5	.
Cc1ccc(-n2ncc3c(N4CCCC4)ncnc32)c(C)c1	0.713	.	1.5	.	.	.	-6.4	0.6	10.2
O=C(NCCc1ccccc1)/C(=C\c1cccc([N+](=O)[O-])c1)NC(=O)c1ccco1	0.68	i	0.5	1.2	3.5	-0.8	-9.4	-0.4	3.0
O=C(c1ccc2oc(Cc3ccc(Cl)cc3)nc2c1)N1CC[C@H](O)C1	0.731	i	0.8	4.9	6.8	1.2	-3.8	1.9	-2.9
Cc1ccc(C(=O)NC2CCN(C(=O)NCc3ccccc3)CC2)cc1	0.701	i	0.6	7.9	12.6	-0.2	-2.0	6.8	-9.2
COc1ccc(Cl)cc1C(=O)Nc1nc2ccccc2[nH]1	.	i	.	-0.4	0.9	1.8	-16.6	1.9	-0.5
Cc1cc(Nc2cccc(Cl)c2)nc(NCc2ccccc2)n1	0.463*	i	6.4	-60.0	-82.8	-23.0	-10.8	-0.1	-7.6
COc1ccc(C(=O)NNS(=O)(=O)c2ccc(OC)cc2)cc1	0.702	i	4.3	0.9	10.2	1.3	-7.2	-0.1	87.2*
CC(C)C1Cc2c(sc3c2c(=O)n(Cc2ccccc2)c2nncn32)CO1 (stereo not drawn)	0.74	.	2.7	.	.	.	-20.9	2.9	-7.5
COc1c2c(c(CCC(=O)O)c3c1C=CC(C)(C)O3)OC(C)(C)C=C2	.	i	.	3.2	8.6	-12.0	0.0	-2.9	.
Cc1ccc(S(=O)(=O)c2nc(S(C)(=O)=O)sc2N2CC(C)OC(C)C2)cc1 (stereo not drawn)	0.696	i	3.5	3.1	1.2	-0.8	3.7	0.2	-3.6
CC(C)(C)NC(=O)c1ccccc1-c1nc2ccccc2s1	0.678	i	-0.7	4.8	-4.3	-0.9	9.5	2.2	-4.6
O=C(CSc1nc2ccccc2[nH]1)c1ccc(Cl)s1	0.713	.	-3.3	.	.	.	18.0	-0.2	.
COc1cccc(-c2nnc(NC(=O)C3CCCCC3)o2)c1	0.704	i	4.6	4.2	2.9	-0.5	0.2	1.6	-2.7
Cc1cnc(C(=O)OC(C)C(=O)Nc2ccccc2-c2ccccc2)cn1 (stereo not drawn)	0.656	i	-0.9	4.6	9.1	1.6	-2.4	-3.6	0.2
COc1ccc(NC(=O)CCCC2CCCCC2)cc1S(=O)(=O)N1CCCCC1	0.684	i	2.0	.	.	.	0.4	-1.3	-2.1
CC(C)COC(=O)OCN1C(=O)CN(CCN2CC(=O)N(COC(=O)OCC(C)C)C(=O)C2)CC1=O	0.688	i	-1.4	-3.2	7.9	-1.5	14.7	0.6	1.8
COc1ccc(NC(=O)CN2CCN(c3nc(-c4cccc(OC)c4)cs3)CC2)cc1	0.711	.	3.8	.	.	.	5.0	-2.5	98.9*
Cc1ccc(C(=O)Nc2cccc3ccccc23)cc1	0.67	i	1.5	1.6	-4.5	-5.3	-9.3	2.0	-5.1
CC(Oc1ccccc1)C(=O)Nc1ccc(NC(=O)c2ccccc2)cc1 (stereo not drawn)	0.717	i	-2.9	20.2	23.6	2.7	3.9	-3.3	-2.4
COc1ccc(CC(=O)NNC(=O)CSc2nnc(C)n2-c2ccccc2)cc1	0.656	i	0.9	-16.6	-18.4	16.8	-0.4	0.8	2.8
COc1ccccc1Oc1ccc(S(=O)(=O)N2CCCCC2C)cc1 (stereo not drawn)	0.608	i	1.6	-9.5	-42.7	-8.1	13.3	2.0	-8.8
CCOC(=O)c1cnc2c(C)cccc2c1Nc1cccc(C(=O)O)c1	0.729	i	7.7	4.7	-9.1	3.2	8.5	3.5	-4.0
Cc1ccc(S(=O)(=O)C2(C(=O)O)CCCC2)cc1C	0.706	.	0.7	4.0	6.9	1.8	8.4	0.8	-5.1
C[C@H](NC(=O)OCc1ccccc1)C(=O)N[C@@H](Cc1c[nH]c2ccccc12)C(=O)O	.	i	-0.5	3.6	-0.2	5.3	0.6	-2.4	.
CC1(Oc2ccc(Cl)cc2)CCN(Cc2csc3ccccc23)C1 (stereo not drawn)	.	i	.	0.8	-5.8	-1.7	.	5.6	.
COc1ccc(N2CCN(C(=O)CC34CC5CC(CC(C5)C3)C4)CC2)c([N+](=O)[O-])c1	0.69	.	3.9	.	.	.	-0.1	-2.8	-7.0
Cc1ccc(OCCCC(=O)N(C)CC(=O)Nc2ccccc2Cl)cc1	0.632	i	-0.3	-13.4	-20.2	-2.5	-2.6	1.4	7.6
COC(=O)c1sc2nc(CN3CCN(c4ccc(OC)cc4)CC3)[nH]c(=O)c2c1C	0.718	i	4.0	3.5	6.0	20.0	-14.8	5.2	13.8
CCn1c(=O)cc(OCC(=O)NCCC(C)C)c2ccccc21	0.751	i	2.3	-6.1	-4.1	-2.9	-6.0	-1.3	-13.3
CN(c1ccc(O)cc1)c1nc(-c2ccccc2)cs1	0.619	.	3.7	.	.	.	-1.3	-1.6	10.3
CCOc1ccc(CN2CCN(Cc3[nH]c4ccccc4c3C)CC2CCO)cc1 (stereo not drawn)	0.697	i	7.0	-8.4	-39.5	33.9	21.6	6.1	-0.9
Cc1cccc(C(=O)OCC(=O)c2ccc3c(c2)NC(=O)CO3)c1	0.643	i	0.7	8.8	5.2	1.6	-0.3	6.7	-2.5
N#C/C(=C\c1ccc[nH]1)C(=O)Nc1ccccc1F	0.721	i	1.1	-9.8	-5.0	0.4	-8.8	-1.2	-14.2
O=C(O)C1CCCCC1C(=O)Nc1ccccc1Cl (stereo not drawn)	0.734	.	0.6	.	.	.	2.9	-1.4	-14.9
CCN(c1ccc(OC)cc1)S(=O)(=O)c1nnc(NC(=O)C2CCCCC2)s1	0.715	i	1.8	4.3	12.9	-3.2	0.3	3.2	-2.1
COc1ccc(CN(C)C(=O)c2ccc(NS(=O)(=O)c3ccc(F)cc3)cc2)c(OC)c1OC	0.724	i	3.1	-8.5	-21.1	-2.6	3.2	-0.8	4.6
Cc1cccc(-n2c(SCC(=O)Nc3ccc4c(c3)OCO4)nnc2-c2ccoc2C)c1	0.77	.	4.3	.	.	.	1.5	1.6	-3.2
Cc1c(NC(=O)c2cccc(NC(=O)Cc3ccc(F)cc3)c2)c(=O)n(-c2ccccc2)n1C	0.702	i	7.2	9.2	3.4	5.6	1.2	2.5	-2.3
Nc1c(N(CCC2=CCCCC2)C(=O)Cc2ccc(F)cc2)c(=O)[nH]c(=O)n1Cc1ccccc1	0.715	i	5.8	7.9	7.7	1.4	-3.1	-0.6	0.6
Cc1nn(-c2ccccc2)c(Cl)c1CN(C(=O)CCl)c1ccc(Cl)cc1	0.661	i	5.5	-32.2*	-25.2*	8.2*	-179.8	-1.1	30.6
Continuation.
SMILES	Ecoli growth	FGF22 binding	UCH37 DUB inh	rRNA inh HTS	rRNA inh HTS OD600	rRNA inh HTS RFP	Beta2AR agonist	HNF4A DNA FP	ALR H2O2 inh
Cc1ccccc1-n1c(C)n[nH]c1=S	0.641	i	-0.1	6.7	2.1	-5.6	-0.3	-5.0	59.0
COc1ccc(NC(=O)CCCc2ccc(OC)c(C)c2)cc1	0.643	i	-0.6	-12.9	-33.5	-12.5	0.1	1.2	-5.5
CC(C)COc1ccc(/C=C2/Sc3ccccc3C2=O)cc1	0.752	.	2.1	.	.	.	9.9	6.7	-5.7
CC(=O)N1CCOc2ccc(S(=O)(=O)N3CCC(C(=O)NCc4ccc(C)cc4)CC3)cc21	0.59	i	-0.4	-4.7	2.8	-2.5	-2.0	-7.8	-0.9
O=S(=O)(Cc1ccccc1)C(CCCc1ccccc1)S(=O)(=O)Cc1ccccc1	.	i	.	5.7	4.0	-3.6	i	-3.7	.
O=C(CCc1nc2cccnc2n1Cc1ccccc1)NCCc1ccc(Cl)cc1	0.713	.	4.1	.	.	.	-7.5	1.2	-3.5
CSCCC(c1nc2ccccc2[nH]1)n1c(=O)c(-c2cc3ccccc3[nH]2)nc2ccccc21 (stereo not drawn)	.	i	.	0.5	0.3	10.8	.	-1.2	.
Cc1coc2c1C(=O)C(=O)c1c-2ccc2c(C)cccc12	.	.	1.7	.	.	.	18.2	-7.3	19.4
CCN1CCN(C(=O)c2cc3cc(F)ccc3[nH]2)CC1	0.701	i	-0.1	12.8	10.8	3.2	-13.3	1.5	-6.3
S=c1[nH]nc(-c2cccnc2)n1Cc1ccccc1	0.667	.	1.2	.	.	.	0.4	-1.9	57.1
CCN(CC)C(=O)C(=O)c1cccn1-c1ccc(C#N)cc1	0.704	i	4.5	8.6	9.0	0.6	0.8	-3.1	-3.8
CC12COC3(C(=O)NCCc4ccccc4)CC1CCC32C (stereo not drawn)	0.625	i	2.9	-2.8	-2.2	-6.3	-8.6	-2.3	-2.0
CCCn1c(N)c(C(=O)CSc2nnc(N)s2)c(=O)[nH]c1=O	0.621	i	3.2	4.7	4.5	1.5	2.7	3.4	0.0
O=C(CSc1nc2c(sc3ccccc32)c(=O)n1CCO)NCc1ccco1	0.698	.	-15.0	.	.	.	0.6	-2.5	2.8
O=C(CCN1C(=O)/C(=C/c2ccc(F)cc2)SC1=S)NNC(=O)c1ccncc1	0.722	.	2.4	5.3	6.9	1.1	-14.0	0.8	0.5
COc1ccc(/C=C/CN2CCCC(C(=O)c3cc(F)ccc3F)C2)cc1 (stereo not drawn)	0.615	i	-0.8	-10.9	-19.4	12.7	23.8	0.9	-28.3

Some of the compounds tested; rates above refer to the full screens.
